From PubChem BioAssay
D2 PAM – Beta-Arrestin HTS for Positive Allosteric Modulators of the Human D2 Dopamine Receptor: Potentiators. D(2) dopamine receptor (Homo sapiens), P14416. DiscoveRx D2 beta-arrestin cells, luminescence, 90 min; 100% = 57 uM dopamine signal. potentiation, % (concentration not given with the values). 360,000 tested, 0.23% active; active = potentiation of 50% or more; inconclusive = 30% to 50%; inactive = 30% or less;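 further: compound concentration not given in the record; tested on top of an EC20 dose of dopamine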
Target sequence (P14416 whole entry, looked up): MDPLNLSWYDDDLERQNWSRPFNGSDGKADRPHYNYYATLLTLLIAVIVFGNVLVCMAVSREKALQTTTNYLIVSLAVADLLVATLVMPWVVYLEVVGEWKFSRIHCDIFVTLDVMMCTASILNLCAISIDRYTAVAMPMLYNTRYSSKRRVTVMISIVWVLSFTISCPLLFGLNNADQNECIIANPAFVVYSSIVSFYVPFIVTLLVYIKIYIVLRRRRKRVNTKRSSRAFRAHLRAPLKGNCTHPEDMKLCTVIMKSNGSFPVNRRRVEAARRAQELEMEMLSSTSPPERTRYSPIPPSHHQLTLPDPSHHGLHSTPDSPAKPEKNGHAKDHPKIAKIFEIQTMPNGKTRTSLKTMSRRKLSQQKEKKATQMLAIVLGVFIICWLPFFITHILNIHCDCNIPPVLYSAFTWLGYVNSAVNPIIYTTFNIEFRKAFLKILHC
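PathHunter beta-arrestin assay in DiscoveRx D2 cells. Compounds were added with an EC20 of dopamine (50 nM final) for 90 min at 37 deg C. Luminescence was read 1 h after detection reagent, with 57 uM dopamine as the EC100 control.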
CtBP-E1A inh – qHTS Assay for Inhibitors of the CtBP/E1A Interaction. AlphaScreen GST-E1A/His-CtBP binding, 1536-well; active compounds read low; control for the full effect not named in the record. AID 651724, 2012. 340,000 tested, 0.49% active. activity change, % (concentration not given with the values). CtBP / adenovirus E1A interaction (AlphaScreen); in the data active means activity change below about -65%; inconclusive means about -30% to -65%; inactive means above about -30%; further: on the % scale 0 is the no-effect control and ±100 the full control effect
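In 5 uL wells, 23 nL compound meets equimolar GST-E1A and His-CtBP (5X stock 125 nM each) for 2 h, 37 °C. Beads (5X, 50 ug/mL) then 1 h, 37 °C, dark.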
gsp agonist – qHTS for Agonist of gsp, the Etiologic Mutation Responsible for Fibrous Dysplasia/McCune-Albright Syndrome: qHTS; gsp mutant cells, cAMP HTRF, 30 min; control for the full effect not named in the record; 340,000 tested, 0.13% active; Potency, µM (top dose mostly 76.9 µM), without a hit: top-dose activation (cAMP increase), usual class: activators; active = well fitted activation curve with a large enough effect; inconclusive = small, poorly fitted or top-dose-only effect, or another doubt; inactive = no such curve, though single readings can be large or run the other way; cell line not stated here;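 further: phosphodiesterase inhibitor Ro 20-1724 added with compounds to block cAMP breakdown; potency means the concentration at half of the fitted maximal effect; nearly all actives have a fitted effect of over 60% in size; about a fifth of the inactives were tested at one dose only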
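Cells stably selected in G418 were plated at 2000/well, grown 16-24 hr, then given compounds in DMSO with the PDE inhibitor […] (300 uM solution added) for 30 min at 37C; cAMP was read by HTRF.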
Six1-Eya2 blk – qHTS Assay for Inhibitors of the Six1/Eya2 Interaction; AlphaScreen GST-Six1/His-Eya2 binding, biochemical; active compounds read low; control for the full effect not named in the record; AID 651725, 2012; Homeobox protein SIX1 (Homo sapiens) + Protein phosphatase EYA2 (Homo sapiens), …; activity change, % (concentration not given with the values); 360,000 tested, 0.56% active; in the data active = activity change below about -65%; inconclusive = about -30% to -65%; inactive = above about -30%; further: on the % scale 0 is the no-effect control and ±100 the full control effect
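Compounds are tested against tagged Six1 and Eya2 proteins bridged by glutathione donor and nickel acceptor beads; after a one-hour incubation at 37 °C without light, AlphaScreen emission is recorded.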
gsp antagonist – qHTS for Antagonists of gsp, the Etiologic Mutation Responsible for Fibrous Dysplasia/McCune-Albright Syndrome: qHTS | 340,000 tested, 0.4% active | AID 624288, 2012 | gsp-mutant cells, cAMP HTRF, 30 min; control for the full effect not named in the record | Potency, µM (top dose mostly 76.9 µM), inactives show at the highest dose activity change, negative = inhibition, usual class: inhibitors; active = falling curve of any shape with a large fitted effect; inconclusive = falling curve, mostly with a smaller effect; inactive = flat or rising curve; cell line not stated here;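 further: intracellular cAMP measured with PDE inhibitor Ro 20-1724 present during compound exposure; potency means the concentration at half of the fitted maximal effect; on the % scale 0 is the no-effect control and ±100 the full control effect; nearly all actives have a fitted effect of over 65% in size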
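Cells, 2000/well, grown 16–24 h in DMEM 10% FBS with 0.5 mg/ml G418, then compounds plus […] (300 uM addition stock), 30 min at 37C. cAMP read by HTRF (cAMP-d2 and anti-cAMP antibody-K in lysis buffer) after 30 min RT.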
D2 ag – Beta-Arrestin HTS for Positive Allosteric Modulators of the Human D2 Dopamine Receptor: Agonists; D(2) dopamine receptor (Homo sapiens), P14416; DiscoveRx PathHunter D2 beta-arrestin, luminescence, 90 min; 100% = 57 uM dopamine signal; activation, % (concentration not given with the values); 360,000 tested, 0.084% active; AID 624465, 2012; in the data active = activation above about 40%; inconclusive = about 15% to 40%; inactive = below about 15%; further: compound concentration not given in the record; the text of the record calls up to 30% inactive
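Agonist mode: compounds alone added to overnight-plated D2 PathHunter cells for 90 min at 37 C, with 57 uM final dopamine (EC100) defining full response. Beta-arrestin recruitment detected by chemiluminescent reagent, read after 1 h at ambient temperature.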
An asterisk follows results filed as active; u = inconclusive; x = not tested or not shown; [ ] = remark or other dose.

entry | SMILES | gsp agonist | D2 PAM | CtBP-E1A inh
1 | COc1ccc(N2CCN(C3CCCN(S(=O)(=O)c4ccccc4)C3)CC2)cc1 (stereo not given) | -4% | 3 | -18
2 | CC(C)Oc1ccc(CN2CCCC(CO)(Cc3ccccc3)C2)cc1CO (stereo not given) | -47%[inhibitor] | -20 | 2
3 | O=c1c2ccccc2nc(SCc2cn3ccsc3n2)n1-c1ccccc1 | -6% | -10 | -7
4 | C=CCCc1ccc(C#N)c(SCc2c(C(=O)OCC)c3cc(OC(C)=O)c(Br)cc3n2C)n1 | -27% | -23 | 23
5 | O=C(NCC(c1cccs1)N1CCOCC1)C1CCN(S(=O)(=O)c2ccccc2C(F)(F)F)CC1 (stereo not given) | 12% | -3 | 1
6 | COc1ccc(C)cc1S(=O)(=O)N(CC(=O)O)c1ccccc1 | 11% | 17 | -7
7 | Cc1ccc2nc(NC(=O)CN(C)S(=O)(=O)c3cccc4nsnc34)sc2c1 | -1% | -12 | -13
8 | CCCCN(CC)S(=O)(=O)c1ccc(C(=O)Nc2nnc(-c3cccs3)o2)cc1 | -18% | -6 | -5

entry | Six1-Eya2 blk | gsp antagonist | D2 ag
1 | -11 | 1% | -2.6
2 | 0 | 7% | 0.4
3 | -9 | 4% | -1.7
4 | 16 | -14% | -2.5
5 | -6 | 0% | -2.6
6 | -7 | 1% | -3.2
7 | -11 | 9% | 12
8 | -9 | u | -2.1

More compounds follow.
entry | SMILES | gsp agonist | D2 PAM | CtBP-E1A inh
9 | O=[N+]([O-])c1ccc(CSc2ncnc3ccccc23)cc1 | 12%[15.4 µM] | -9 | 9
10 | Cc1ccc(-c2[nH]ncc2C(=O)c2ccccc2C)c(O)c1 | -3% | 5 | 2
11 | CSc1nc(NS(=O)(=O)c2ccc(F)cc2F)nn1C | 6% | -6 | 7
12 | CN(Cc1ccc(Cl)cc1Cl)C(=O)C1CSC2(C)CCC(=O)N12 (stereo not given) | -53%[inhibitor] | -4 | 3
13 | Cn1c(SCC(=O)N2CCN(c3ccccc3)CC2)nnc1-c1cc2ccccc2o1 | 13% | 3 | 2
14 | COc1cccc(C(=O)N/N=C/C(Br)=C/c2ccccc2)c1 | -13% | -30 | -88*
15 | COCc1cc(C)nc2sc(C(=O)Nc3ccc(C(=O)OC)cc3)c(N)c12 | u | -3 | x
16 | CCN(CC)c1ccc(/C=N/NC(=S)NCc2ccccc2)cc1 | -45%[inhibitor] | -15 | -15

entry | Six1-Eya2 blk | gsp antagonist | D2 ag
9 | -18 | 5% | -0.7
10 | 6 | 3% | 2.8
11 | 1 | 9% | -3.2
12 | -2 | x | -4.0
13 | 0 | 5% | -2.1
14 | -28 | -9% | -3.3
15 | 4 | -1% | 0.6
16 | -23 | 3% | -0.5

Following part:
entry | SMILES | gsp agonist | D2 PAM | CtBP-E1A inh
17 | CC(C)(C(=O)N1CCC1(C)C(=O)NS(=O)(=O)c1cccc(Cl)c1)c1ccccc1 (stereo not given) | x | 1 | -5
18 | CC1=CCC2C(=O)N(c3cccc(C(=O)N(C)C4CCCCC4)c3)C(=O)C2C1 (stereo not given) | 3% | -12 | 12
19 | CN1C(=O)c2ccccc2N(C)C1c1cccs1 (stereo not given) | -32%[inhibitor] | -15 | -2
20 | CCCNC(=O)c1ccc(CN2CCc3ccccc3C2)cc1 | 0% | -9 | 3
21 | COCCn1c(SCC(=O)Nc2ccccc2OC)nc2ccccc21 | 12%[15.4 µM] | 0 | -1
22 | COC(=O)[C@H](Cc1ccccc1)NC(=O)N1CCCCCC1 | u | 6 | -1
23 | COc1cnn(-c2cccc(Cl)c2)c(=O)c1Cl | 0% | -5 | 14
24 | FC(F)(F)c1nnc2ccc(N3CCCC3)nn12 | -7% | 9 | 10

entry | Six1-Eya2 blk | gsp antagonist | D2 ag
17 | 10 | x | 0.9
18 | 0 | -4% | -2.1
19 | 17 | -1% | -1.1
20 | 9 | -1% | -1.4
21 | 1 | -10% | -4.6
22 | -9 | 23% | -4.3
23 | 4 | -13% | -2.8
24 | 12 | 2%[15.4 µM] | -2.6

The list goes on.
entry | SMILES | gsp agonist | D2 PAM | CtBP-E1A inh
25 | CCOC(=O)COc1ccc(S(=O)(=O)N2CCN(c3ccc(OC)cc3)CC2)cc1 | 3%[15.4 µM] | -4 | 0
26 | CCOC(=O)c1c(C)oc(=O)c(CC)c1O | 14% | -13 | -13
27 | CCn1c(CNC(=O)c2ccc(Cl)cc2)nnc1SCC(=O)N1CCOCC1 | u | -2 | 4
28 | CCOc1cccc(-c2nn3c(-c4cc(C)[nH]n4)nnc3s2)c1 | -3% | -22 | -71*
29 | CC1CCCN(C(=O)C2CCN(S(=O)(=O)c3cccc4nonc34)CC2)C1 (stereo not given) | -13% | 4 | 3
30 | Cc1cc(-c2nnc(SCC(=O)Nc3ccc(C)c(C)c3)n2N)n[nH]1 | -12% | -2 | 1
31 | Cc1c(C(=O)OCc2nnc(-c3ccccc3)o2)oc2ccccc12 | 17% | -3 | x
32 | CCS(=O)(=O)N1CCN(c2ccccn2)CC1 | 19% | 0 | 9

entry | Six1-Eya2 blk | gsp antagonist | D2 ag
25 | -5 | -7% | 0.0
26 | 5 | x | -3.3
27 | 12 | -1% | -1.5
28 | u | -18% | -9.3
29 | 3 | -11% | 11
30 | -1 | -2% | 0.2
31 | 3 | -2% | -3.8
32 | 0 | 7% | -5.6

(more compounds)
entry | SMILES | gsp agonist | D2 PAM | CtBP-E1A inh
33 | O=C(NCc1ccco1)c1ccc2c(=O)n(CC3CCCO3)c(=S)[nH]c2c1 (stereo not given) | 6% | -14 | 1
34 | c1ccc2c(Nc3ccc4c(c3)OCCO4)c3c(nc2c1)CCCC3 | -1%[15.4 µM] | -17 | -25
35 | O=C(NCc1ccccc1)C(c1ccccc1F)N(C(=O)c1csnn1)C1CCCC1 (stereo not given) | 28% | -3 | 5
36 | CC(C)Oc1ccc(S(=O)(=O)N2CCOCC2)cc1NC(=O)CC1OC(=O)c2ccccc21 (stereo not given) | 44% | -2 | 2
37 | Cc1ccc(NC(=O)CSc2ncnc3ccccc23)cc1S(=O)(=O)N1CCCCCC1 | 21%[15.4 µM] | 2 | 2
38 | COc1ccccc1S(=O)(=O)Cc1ccc(C(=O)N2CCN(c3cccc(Cl)c3)CC2)o1 | u | 10 | -2
39 | CC(C)(C)NC(=O)C(c1ccncc1)N(CC1CCCO1)C(=O)Cn1nnc(-c2ccc(F)cc2)n1 (stereo not given) | -15% | -9 | -7
40 | O=C(CNC(=O)c1ccc(Br)cc1)N=Nc1c(O)[nH]c2ccc([N+](=O)[O-])cc12 | u | -5 | -2

entry | Six1-Eya2 blk | gsp antagonist | D2 ag
33 | -4 | 7% | -1.9
34 | u | -5% | -0.5
35 | -3 | -3% | -2.7
36 | 0 | 1% | -1.8
37 | 1 | -24% | 2.4
38 | -1 | u | 2.4
39 | 5 | -2% | -2.2
40 | -13 | -10% | -3.1

Going on with the list:
entry | SMILES | gsp agonist | D2 PAM | CtBP-E1A inh
41 | Cc1ccc(C2C3C(=O)N(c4ccccc4)C(=O)C3N3CCCN23)cc1 (stereo not given) | 2% | -19 | x
42 | Cc1ccc(C)c(NC(=O)CN(C)S(=O)(=O)c2ccccc2)c1 | u | 2 | -1
43 | Cc1cc(C(=O)Nc2ccc(Br)cc2)c2ccccc2n1 | u | -2 | x
44 | N#CCOc1coc(CN2CCN(c3cccc(Cl)c3)CC2)cc1=O | -1% | -7 | 1
45 | COc1cccc(NC(=O)C(=O)N/N=C(\C)CC(=O)Nc2ccc(NC(C)=O)cc2)c1 | 8% | -4 | x
46 | CC(=O)Nc1cccc(NC(=O)c2ccc(C(=O)Nc3cccc(NC(C)=O)c3)nc2)c1 | -24% | 0 | -3
47 | COC(=O)c1cc(C(=O)OCC(=O)N(C)c2ccccc2)cc([N+](=O)[O-])c1 | 10%[15.4 µM] | -3 | -10
48 | CCc1cccc(NC(=O)CCS(=O)(=O)c2cccc3nonc23)c1 | 2% | -12 | -2

entry | Six1-Eya2 blk | gsp antagonist | D2 ag
41 | 6 | 6% | -1.3
42 | -1 | -1% | -3.6
43 | u | 7% | 4.8
44 | 2 | 6% | 11
45 | -2 | -12% | -5.7
46 | 0 | 3% | -4.8
47 | 8 | -3% | -3.3
48 | -2 | -7% | -2.4

Five compounds from above, arranged by their value in D2 PAM, high to low:
entry | SMILES | gsp agonist | D2 PAM | CtBP-E1A inh
46 | CC(=O)Nc1cccc(NC(=O)c2ccc(C(=O)Nc3cccc(NC(C)=O)c3)nc2)c1 | -24% | 0 | -3
43 | Cc1cc(C(=O)Nc2ccc(Br)cc2)c2ccccc2n1 | u | -2 | x
45 | COc1cccc(NC(=O)C(=O)N/N=C(\C)CC(=O)Nc2ccc(NC(C)=O)cc2)c1 | 8% | -4 | x
44 | N#CCOc1coc(CN2CCN(c3cccc(Cl)c3)CC2)cc1=O | -1% | -7 | 1
48 | CCc1cccc(NC(=O)CCS(=O)(=O)c2cccc3nonc23)c1 | 2% | -12 | -2

entry | Six1-Eya2 blk | gsp antagonist | D2 ag
46 | 0 | 3% | -4.8
43 | u | 7% | 4.8
45 | -2 | -12% | -5.7
44 | 2 | 6% | 11
48 | -2 | -7% | -2.4

Next part:
entry | SMILES | gsp agonist | D2 PAM | CtBP-E1A inh
49 | CN(CC(=O)NCCc1ccccc1)S(=O)(=O)c1ccc(Br)s1 | 4%[15.4 µM] | -8 | 1
50 | COC(=O)c1ccc(CNC(=O)c2cc(COc3cncc(Cl)c3)on2)cc1 | u | 6 | -2
51 | CCOC(=O)c1cc(-c2ccccc2)nn1-c1ccccn1 | -6% | -4 | 54
52 | Cc1cccc(OCCNc2ccc([N+](=O)[O-])cn2)c1 | 0%[15.4 µM] | -7 | -2
53 | O=C(Nc1nnc(C2CC2)s1)c1n[nH]c(=O)c2ccccc12 | -21% | 6 | -2
54 | CC1(C)CC(=O)C(C(c2ccc(Br)cc2)C2C(=O)CC(C)(C)CC2=O)C(=O)C1 | u | 2 | 0
55 | Cc1cc(C)nc(NC2=NCCN2C(=S)Nc2c(C)cccc2C)n1 | -32%[inhibitor] | -11 | 8
56 | C/C(=N\O)c1cccc(Br)c1 | -8% | -4 | -3
57 | Cc1cc(C(=O)Nc2nc3ccc(Cl)cc3s2)nn1C | -5%[15.4 µM] | -11 | 4

entry | Six1-Eya2 blk | gsp antagonist | D2 ag
49 | -1 | -1% | -4.9
50 | -4 | -13% | -3.6
51 | 0 | 2% | 0.4
52 | -9 | 2% | -2.0
53 | -2 | -8% | -2.2
54 | 1 | 0% | 10
55 | 0 | 11% | -1.5
56 | 1 | 8% | -3.3
57 | -1 | -4% | -4.4
